Mtb hypoxia inh = reduces hypoxia-regulated biosensor signal in M. tuberculosis. 300,000 tested, 0.1% active. M. tuberculosis hypoxia-regulated fluorescent reporter, fluorescence. fluorescence inhibition, % (test concentration not listed). AID 1159583;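 active = 35 to 45% if threefold the growth effect, above 45% if 1.5-fold the growth effect; inactive = the rest, general growth blockers included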;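 also: wells of about 50 µL received 100 nL stock; 0% = vehicle wells and 100% = reference inhibitor wells; whole bacteria with a GFP reporter of the hypoxia response; strong numbers were not always called active; many hits fall short of the cut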
Bead autofluor = compound fluorescence in toxin protease inhibitor counterscreen | AID 624483 | fluorescence intensity (test concentration not listed) | compound autofluorescence counterscreen, microsphere flow cytometry; stronger effect = higher value | 360,000 tested, 3.1% active;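 active = at least 3 SD above the mean of all compounds, about 16000 in these data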;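 also: 100 nL of 1 mM stock went into each well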
RN4220 kill = S. aureus RN4220 growth inhibition | OD600, 16 h | inhibition, % (no concentration beside the values) | 330,000 tested, 0.33% active;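 active = z-score of -3 or lower and OD600 up to 0.18 on both plates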;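 also: plate controls were untreated cells for no effect and reference antibiotic for full effect; stock transfer was 100 nL into about 80 µL; one replicate is shown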
PrP 5UTR inh = inhibition of PrP 5' UTR reporter expression; inhibition, % (concentration not given with the values); cell-based PrP 5' UTR mRNA reporter, plate reader; 340,000 tested, 0.35% active;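 active = every replicate at 50% or more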;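 also: 0 = median of the neutral control wells; tested in H4 reporter cells; numbers are from one replicate; inactives centre near -14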
BJeLR viability = BJeLR cell viability loss | BJeLR (HRASV12) viability, CellTiter-Glo ATP luminescence, 48 h; reference of the scale not given here | inhibition, % (concentration not given with the values) | 300,000 tested, 0.17% active;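 active = replicate mean above 50%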;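 also: 50 nL library stock added to about 25 µL; numbers are from one replicate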
ugtP null kill = kills S. aureus RN4220 lacking UgtP; AID 1259309; 330,000 tested, 0.54% active; S. aureus RN4220 ugtP deletion, OD600 growth, 16 h; some inactives read as strong as hits; growth inhibition, % (test concentration not listed);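 active = z-score under -3 and OD600 up to 0.15 on both plates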;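 also: plate controls were untreated wells for no effect and antibiotic for full effect; wells of about 80 µL received 100 nL stock; the first replicate is given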
Mtb hypoxia inh growth = further read-out of Mtb hypoxia inh, marked with its call; growth inhibition, %; measured here: M. tuberculosis growth (absorbance);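 0% = vehicle and 100% = reference antibiotic; read after six days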
An asterisk follows results filed as active; x = no result given. This is a random part of the collection; 3.9% or so of the library scored in one or more.

SMILES	Mtb hypoxia inh	Mtb hypoxia inh growth	Bead autofluor	RN4220 kill	PrP 5UTR inh	BJeLR viability	ugtP null kill
COc1ccc(C(=O)COC(=O)CCc2ccccc2)cc1	16	8	3767	2.2	2	-4	5
COc1ccc(-c2[nH]c(-c3ccc(F)cc3)nc2SCC(=O)NC2CCCC2)cc1	-2	7	4342	-2.2	0	-8	-8
O=C(O)CC1S/C(=N/N=C/c2ccc(-c3ccc(Cl)cc3[N+](=O)[O-])o2)NC1=O (stereo not drawn)	x	x	9551	x	-18	-16	x
CN(CC(=O)Nc1ccc2c(c1)OCO2)S(=O)(=O)c1cccs1	1	3	3515	4.2	-25	-5	0
CC1=CC(C)(C)N(C(=O)CN2C(=O)CCC2=O)c2ccc(C)cc21	10	10	4273	5.0	-41	-14	14
O=C(C1CCCN(S(=O)(=O)c2ccccc2[N+](=O)[O-])C1)N1CCCC1 (stereo not drawn)	12	11	2523	4.3	-14	-11	20
NC(=O)C1CCN(C(=O)Cn2cccc2C(=O)c2ccccc2)CC1	15	5	3680	0.4	-11	-2	2
CCOC(=O)c1ccc2c(c1)nc(SC(C)C(=O)NCC1CCCO1)n2CC (stereo not drawn)	6	3	6189	4.9	-3	x	7
O=c1c2c(nc3nc(COc4ccccc4)[nH]n13)CCC2	x	x	4318	-0.6	-18	18	6
CCOC(=O)c1c(C)oc2ccc(NS(=O)(=O)c3cccs3)cc12	18	12	10935	2.4	-1	-9	-3
Cc1ccc(C(=O)N2N=C3c4ccccc4S(=O)(=O)N3[C@H]2N(C)C)cc1	2	-5	4374	2.6	-10	-12	7
CC(=O)NNc1ncnc2c1cnn2-c1ccc(C)c(Cl)c1	-3	4	4258	6.9	-19	3	7
Brc1cc2[nH]cnc2c2ccccc12	11	9	9825	3.2	-12	14	-21
CCOc1ccccc1N(CC(=O)NCCSc1ccccn1)S(=O)(=O)c1ccc(C)cc1	17	10	5212	3.1	-12	-1	5
COC(=O)c1ccc(C)c(NC(=O)CCCN2C(=O)CN(C)C2=O)c1	8	5	3656	2.4	-14	x	2
N#Cc1c(SCC(=O)Nc2cccc(F)c2)sc2c(O)cc(=O)[nH]c12	8	0	4673	7.6	-5	-2	8
C[C@H](CO)N1C[C@H](C)[C@@H](CN(C)S(=O)(=O)c2ccccc2)Oc2ccc(NC(=O)NC3CCCCC3)cc2C1=O	-20	-3	2974	0.3	-29	x	2
COC(=O)c1ccc(CNC(=O)CSC2=NCCS2)cc1	5	7	4137	-0.9	-12	-1	-1
Brc1cc(Br)c2nc(-c3cccs3)ccc2c1	x	x	3170	-2.5	-74	-2	14
CC(C)N1CCC(N2CCN(Cc3ccc4nonc4c3)CC2CCO)CC1 (stereo not drawn)	4	-3	3741	1.5	-3	5	-1
NCCNC(=O)c1c(NC(=O)c2ccccc2)sc2c1CCCC2	-6	12	3886	-0.6	-23	8	-17
c1ccc(-c2nc(NCc3ccco3)c3ccccc3n2)nc1	0	8	4636	2.7	-39	-3	-6
O=[N+]([O-])c1ccccc1N/N=C/c1c[nH]c2ccccc12	x	x	2510	x	-154	8	x
COc1cc(OC)cc(C(=O)NC(=S)Nc2ccc(Cl)c(C(=O)O)c2)c1	-2	-5	24431*	2.4	0	-9	-2
Cc1ccc(-n2c(SCC(N)=O)nc3c([nH]c4ccccc43)c2=O)cc1	2	8	4194	8.4	-3	13	14

(further entries)
SMILES	Mtb hypoxia inh	Mtb hypoxia inh growth	Bead autofluor	RN4220 kill	PrP 5UTR inh	BJeLR viability	ugtP null kill
O=C(CCC1CCCC1)NNC(=O)COc1ccc(Br)cc1	-7	-2	5093	2.4	-12	x	3
COCCNC(=O)Cn1cnc2sc(C)c(S(=O)(=O)N3CCC(C)CC3)c2c1=O	5	16	4197	-3.1	-21	-5	-10
CC(C)C(=O)Nc1nnc(S(=O)(=O)N2c3ccccc3CC2C)s1 (stereo not drawn)	8	9	6107	1.2	-13	-1	4
COc1ccccc1C(=O)Nc1ccc2c(c1)nc1n2CCN(Cc2ccccc2)C1	-3	9	6096	5.7	56*	-2	1
Cc1cc(NC(=O)CSCC(=O)Nc2nc3ccc(F)cc3s2)no1	6	4	3520	1.1	-38	x	-1
CNC(=O)c1csc(-c2ccc(C)cc2)n1	5	9	20516*	4.3	-16	-1	-12
CC(C)C(C)NC(=O)COc1ccc(S(=O)(=O)N2CCOCC2)cc1[N+](=O)[O-] (stereo not drawn)	8	-3	2494	3.8	-3	7	7
COc1ccccc1Oc1ccc(N/C=C/C(=O)c2ccc(C)o2)cc1	12	12	2863	-12	-29	3	-11
Cc1ccc(OCC(O)CN2CCc3ccccc3C2)c(C)c1 (stereo not drawn)	9	0	4243	1.9	0	0	9
O=C(CN1CCN(S(=O)(=O)c2ccc(F)c(Cl)c2)CC1)N1CCNC1=O	-2	-2	9154	3.3	-16	x	6
O=C(NC1CCOCC1)C1CCC(=O)N(CCc2cccc(F)c2)C1 (stereo not drawn)	5	3	5116	2.7	-5	3	3
O=C(NCCCc1ccccc1)c1cc(COc2ccc(F)cc2Cl)on1	-2	-12	5480	-2.9	-14	2	0
CCCOc1ccc(C(=O)C(CCC(CNCC)C(=O)c2ccc(OCCC)cc2)CNCC)cc1 (stereo not drawn)	x	x	2606	12	9	137*	-24
CC1=NOC(=O)/C1=C\c1ccccc1	12	-9	6137	2.4	-23	-2	11
CCCOc1cc(C)c(S(=O)(=O)n2ccc(C)n2)cc1C	x	x	4650	1.4	4	-2	-15
CCOC(=O)C1C(c2ccc(C)o2)NC(=O)NC1(O)C(F)(F)F (stereo not drawn)	3	-5	2508	4.8	2	8	2
CCC(C(=O)NC1CCCCC1)n1c(SCc2ccc(F)cc2)nc2ccncc21 (stereo not drawn)	-8	-5	5044	-1.8	-19	3	4
C=CCN1C(=O)C(C)S/C1=N\S(=O)(=O)c1ccc(Cl)cc1 (stereo not drawn)	x	x	1843	x	10	-2	x
CCOc1ccccc1NC(=O)Cn1nnc(C(=O)NCCc2ccc(OCC)c(OCC)c2)c1N	-2	-2	4421	7.0	-11	6	2
COc1cc(C(=O)N/N=C/c2cccc(Oc3ccccc3)c2)ccc1O	x	x	4520	x	-2	-2	x
CS(=O)(=O)N1CCC(C(=O)Nc2ccc(Br)cc2F)CC1	-4	-5	10455	4.2	-17	-4	7
OC1CN2CCC(O)C2C(O)C1O (stereo not drawn)	1	4	x	2.4	x	x	-4
Cc1nc(C(C)NC(=O)CCc2nnc(Cc3c[nH]c4ccccc34)o2)cs1 (stereo not drawn)	-2	2	4325	6.8	-84	-2	14
CC(C)(C)NC(=O)c1cccc2c1OC(C)(C)C2	16	0	8012	6.4	-14	1	2
C=CCNC(=O)c1ccc(C(=O)c2ccccc2)cc1	2	4	23162*	3.3	-14	-22	0

Part of the list above in order of length of the SMILES, lowest first.
SMILES	Mtb hypoxia inh	Mtb hypoxia inh growth	Bead autofluor	RN4220 kill	PrP 5UTR inh	BJeLR viability	ugtP null kill
CC1=NOC(=O)/C1=C\c1ccccc1	12	-9	6137	2.4	-23	-2	11
CNC(=O)c1csc(-c2ccc(C)cc2)n1	5	9	20516*	4.3	-16	-1	-12
CC(C)(C)NC(=O)c1cccc2c1OC(C)(C)C2	16	0	8012	6.4	-14	1	2
Cc1ccc(OCC(O)CN2CCc3ccccc3C2)c(C)c1 (stereo not drawn)	9	0	4243	1.9	0	0	9
CCC(C(=O)NC1CCCCC1)n1c(SCc2ccc(F)cc2)nc2ccncc21 (stereo not drawn)	-8	-5	5044	-1.8	-19	3	4
CCCOc1ccc(C(=O)C(CCC(CNCC)C(=O)c2ccc(OCCC)cc2)CNCC)cc1 (stereo not drawn)	x	x	2606	12	9	137*	-24

Next part
SMILES	Mtb hypoxia inh	Mtb hypoxia inh growth	Bead autofluor	RN4220 kill	PrP 5UTR inh	BJeLR viability	ugtP null kill
CC(NC(=O)c1ccccc1F)c1ccccc1 (stereo not drawn)	x	x	3603	3.6	-4	-1	4
CCCc1cc(N2CCOCC2)n2nc(C)c(-c3ccccc3)c2n1	-1	-1	3591	3.3	-20	12	9
O=C(Cc1ccc(Cl)cc1)Nc1ccccc1C(=O)Nc1ccc(C(=O)O)cc1	10	3	4568	7.2	-31	0	5
O=C(CC1C(=O)NCCN1Cc1ccccc1)NCCN1CCCCC1=O (stereo not drawn)	-3	0	5217	0.1	-18	3	1
CC(=NNC(=O)c1cc(-c2ccccn2)nc2ccccc12)c1cccc([N+](=O)[O-])c1	-1	-10	x	4.1	x	x	4
O=C(N/N=C/c1ccc(-n2ccnc2)cc1)c1cccs1	x	x	5954	x	-64	-10	x
COc1ccc(S(=O)(=O)NCC2CCCN(Cc3ccccc3Cl)C2)cc1 (stereo not drawn)	6	2	6316	1.4	-4	9	10
Cc1cccc(CCNCc2cc3cccc(C)c3[nH]c2=O)c1	2	19	3708	2.1	11	2	-2
COc1ccc(/C=C/C(=O)c2ccccc2)c(OC)c1	-14	1	2190	-0.7	-104	-3	-1
Cc1cc(=O)n2nc(N3CCCC3C(=O)Nc3ccccc3C)sc2n1 (stereo not drawn)	-5	8	7380	-11	-21	6	-7
O=C(NCCN1CCc2ccccc2C1)C1CC(=O)N(C2CCCC2)C1 (stereo not drawn)	4	6	9824	3.4	-7	13	2
Cc1ccc(S(=O)(=O)/N=S(/C)c2ccccc2)cc1 (stereo not drawn)	x	x	2720	x	-18	6	x
COc1ccc2c(C)c(CCC(=O)NCCCN3CCCC3=O)c(=O)oc2c1C	x	x	4351	2.2	-9	5	-3
O=C(Nc1nc(-c2ccc(Cl)cc2Cl)cs1)C1CCCO1 (stereo not drawn)	x	x	7441	x	-11	-7	x
Cc1nnc(NC(=O)C2CCCN(S(=O)(=O)Cc3ccccc3)C2)s1 (stereo not drawn)	x	x	4202	-0.6	-21	-2	3
COc1ccc(C(=O)N/N=C(\C)CC(=O)NC2CCCCC2)c(OC)c1	x	x	4872	x	-10	1	x
CN(CCCNC(=O)c1ccc(N2CCCC2=O)cc1)c1ccccc1	17	10	2959	-9.9	-17	-4	-4
CCOC(=O)C1CCN(C(=O)COc2cccc(C)c2)CC1	-3	0	11455	2.4	-7	5	-3
Nc1cc(N)nc(SCC(=O)c2ccc3c(c2)NC(=O)CO3)n1	5	0	3911	4.6	-27	1	12
COCCNC(=O)c1cc2c(=O)n3cccc(C)c3nc2n(Cc2ccncc2)c1=N	-12	6	5865	-0.8	9	-11	0
O=C(Nc1cccc(C(=O)O)c1)Nc1cccc2ccccc12	11	11	3365	-0.5	-18	4	0
O=c1c2ccccc2ncn1Cc1cccc2ccccc12	11	10	2034	3.9	-12	-3	-3
CC(=O)c1cccc(CN2CCN(C3CCCCC3)C(CCO)C2)c1 (stereo not drawn)	-9	6	3397	2.6	-20	-4	-1
CC(=O)c1cc(C#N)c(Oc2cc(C)cc(C)c2)nc1C	x	x	2784	1.0	-11	8	2
CCOC(=O)N1CCC(NC(=O)c2cc(C(=O)Nc3ccc(F)cc3F)ccc2CO)CC1	0	6	6288	-9.6	-10	-17	4

Carrying on.
SMILES	Mtb hypoxia inh	Mtb hypoxia inh growth	Bead autofluor	RN4220 kill	PrP 5UTR inh	BJeLR viability	ugtP null kill
Cc1ccc(S(=O)(=O)N2CCCCC2C(=O)N2CCN(c3ccccc3F)CC2)cc1 (stereo not drawn)	0	10	10825	5.0	-47	6	-4
CSc1sc(C(=O)N(C)C)c2c1S(=O)(=O)N(C)c1ccccc1-2	11	10	4015	2.3	-4	-8	3
O=C(Nc1ccc(S(=O)(=O)O)cc1)c1ccc2c(c1)S(=O)(=O)c1ccccc1C2=O	7	6	3610	5.6	-34	1	4
CCN1C(=O)c2ccc(-c3nc4ccccc4c(=O)o3)cc2C1=O	4	1	5692	0.7	-7	-4	8
COC(=O)C1=C(c2ccc(F)cc2OCc2ccccc2)CC2CCC1N2C(=O)NC1CCN(Cc2ccccc2)CC1 (stereo not drawn)	-11	0	x	-5.5	x	x	-1
CN(C)C(=O)[C@H]1C[C@H]1[C@@H](O)[C@H](CO)NC(=O)[C@H](COCc1ccccc1)NC(=O)OC(C)(C)C	x	x	3885	x	-16	-1	x
CCc1noc(C)c1C(=O)N1CCN(S(=O)(=O)c2c(C)cc(C)cc2C)CC1	11	4	3873	2.6	0	x	2
CC(=O)Nc1ccc(C(=O)OCc2ccccc2Cl)cc1	-4	-2	2469	1.5	-28	-23	10
COc1ccc(-c2cn3c(C)c(C(=O)Nc4cccc(NC(C)=O)c4)sc3n2)cc1	3	0	7386	1.9	-12	-3	-9
c1ccc2c(NCCc3c[nH]c4ccccc34)c3ccccc3nc2c1	x	x	3288	x	-20	36	x
